Screening results deposited in PubChem BioAssay by Broad Institute.
FGF22 binding – FGF22 (human) thermal shift binding. AID 651658. Q9HCT0. 1.5% of 340,000 active. recombinant FGF22 thermal shift, SYPRO orange fluorescence; percent of sucrose octasulfate shift, DMSO zero. calls only at 9.99 µM;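 active means melting point raised past a set limit in the mean and every replicate; three in four hits are not shown here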
Target sequence (Q9HCT0 whole entry, looked up): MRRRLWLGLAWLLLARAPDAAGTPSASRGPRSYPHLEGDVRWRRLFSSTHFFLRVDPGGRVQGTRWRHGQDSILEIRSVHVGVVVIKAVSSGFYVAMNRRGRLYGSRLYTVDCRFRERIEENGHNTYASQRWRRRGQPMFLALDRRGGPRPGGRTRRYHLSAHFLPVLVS
rRNA inh HTS – inhibits bacterial ribosomal RNA function over humanized ribosomes; E. coli WT GFP vs humanized-ribosome RFP mutants, fluorescence, 24 h; stronger effect = lower value; DMSO median 0, no signal -100; GFP signal change (wild-type ribosome), % (concentration not given with the values); 1.6% of 350,000 active; AID 720706;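 active means significant combined selectivity score with lowered wild-type GFP, culture density cut under 30%, mutant RFP and density less affected; inactive means any of these conditions unmet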; further: one replicate is shown; some compounds called inactive have numbers as strong as hits
MLL AF4-AF9 inh – blocks AF4 peptide binding to human AF9; P42568; AlphaScreen, biotin-AF4 peptide binding to FLAG-AF9; inhibition, % at 10 µM; 0.47% of 350,000 active;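 active means every replicate reaching a set inhibition limit, whatever the replicate mean, cut at about 25% in these data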;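 further: 0% = plate neutral control median and 100% = total signal loss; the record names both 10 and 1 µM as test concentration; the first replicate is given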
Target sequence (P42568 whole entry, looked up): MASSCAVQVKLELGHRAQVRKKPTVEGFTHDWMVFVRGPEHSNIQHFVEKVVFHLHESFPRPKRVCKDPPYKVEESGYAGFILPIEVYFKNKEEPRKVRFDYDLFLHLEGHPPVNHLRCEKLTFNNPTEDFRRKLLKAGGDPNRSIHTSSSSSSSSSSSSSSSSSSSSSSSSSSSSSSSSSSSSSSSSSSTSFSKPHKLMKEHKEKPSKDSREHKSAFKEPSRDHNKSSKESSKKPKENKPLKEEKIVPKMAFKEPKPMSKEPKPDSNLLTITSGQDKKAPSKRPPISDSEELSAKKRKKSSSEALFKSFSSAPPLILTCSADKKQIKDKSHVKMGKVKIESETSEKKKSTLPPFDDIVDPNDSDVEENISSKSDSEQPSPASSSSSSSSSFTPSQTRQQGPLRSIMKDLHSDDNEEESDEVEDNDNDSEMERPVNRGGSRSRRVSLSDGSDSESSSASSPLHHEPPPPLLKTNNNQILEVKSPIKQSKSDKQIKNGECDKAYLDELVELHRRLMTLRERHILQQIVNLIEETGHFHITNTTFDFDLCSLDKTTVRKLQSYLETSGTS
rRNA inh HTS OD600 – second read-out of rRNA inh HTS, no call of its own (marks repeat the call); OD600 change, %; measured here: OD600 growth;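 optical density of the mix in the first replicate; 0 = DMSO median and -100 = no signal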
rRNA inh HTS RFP – second read-out of rRNA inh HTS, no call of its own (marks repeat the call); RFP signal change, %; measured here: RFP humanized mutant strains;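 first replicate; 0 = DMSO median and -100 = no signal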
* marks the source's active call; other numbers are inactive results; i = inactive. A portion of the library; count on the stated rates, not on these rows.

Compound	FGF22 binding	rRNA inh HTS	rRNA inh HTS OD600	rRNA inh HTS RFP	MLL AF4-AF9 inh
Cc1noc(C)c1NC(=O)Nc1ccc2c(c1)C(=O)N([C@H](C)CO)C[C@H](C)[C@H](CN(C)Cc1ccc(C(=O)O)cc1)O2	i	2	3	-0.2	-1.7
C[C@@H]1CN([C@@H](C)CO)C(=O)c2cc(-c3ccccc3F)cnc2O[C@H]1CN(C)C(=O)C1CCOCC1	i	5	3	0.6	-1.0
Cc1noc(C)c1S(=O)(=O)Nc1ccc2c(c1)C(=O)N([C@H](C)CO)C[C@H](C)[C@@H](CN(C)S(=O)(=O)c1ccc(F)cc1)OCCCC[C@H](C)O2	i	-5	-2	1.4	0.4
CN(C)CC1CCC/C(=C\c2ccc(OC(=O)/C=C/c3ccc(Cl)c(Cl)c3)cc2)C1=O (stereo not given)	i	4	4	4.8	6.7
CC1(C(=O)NS(=O)(=O)c2cccc(C#N)c2)CCN1C(=O)CC1CCCCC1 (stereo not given)	i	16	11	-1.3	-1.9
CCCCN(C(=O)C1CC(=O)N(c2ccc3c(c2)OCCO3)C1)c1c(N)n(CC(C)C)c(=O)[nH]c1=O (stereo not given)	i	3	-2	-2.0	2.4
CC(C)NC(=O)N(C)C[C@@H]1Oc2ccc(NC(=O)CCCCCC(=O)Nc3ccccc3N)cc2CC(=O)N([C@H](C)CO)C[C@@H]1C	i	6	10	0.3	0.1
COc1ccc(S(=O)(=O)Nc2ccc3c(c2)CC(=O)N([C@H](C)CO)C[C@H](C)[C@@H](CN(C)S(C)(=O)=O)O3)cc1	i	0	-2	-2.1	5.7
COc1ccccc1NC(=O)N[C@@H]1CC[C@@H](CCn2cc(-c3ccccc3OC)nn2)O[C@H]1CO	i	0	-7	0.1	1.2
COc1ccc2c3c(n(C)c2c1)[C@H](CO)N(C(=O)c1ccncc1)CC31CCN(S(C)(=O)=O)CC1	i	-1	6	-1.0	-4.8
CCN1C(=O)[C@H]2[C@@H](c3ccc(C(F)(F)F)cc3)N[C@]3(CCCN(Cc4ccco4)C3=O)[C@H]2C1=O	i	18	11	4.7	2.1
O=C(N[C@@H]1CC[C@@H](CCNC(=O)c2ccccc2F)O[C@H]1CO)c1ccc2c(c1)OCO2	i	-1	0	-2.3	-1.2
Cc1ccccc1-c1ccc([C@H]2[C@@H](CO)N3CCCCN(C(=O)NC4CCCC4)C[C@H]23)cc1	i	-59	-77	-13	2.8
O=C(Nc1ccccc1)N1CCCCN2[C@H](CO)[C@@H](c3ccc(C4=CCCCC4)cc3)[C@H]2C1	i	-59	-74	-17	7.1
CO[C@H]1CN(C)C(=O)c2cc(NS(=O)(=O)c3cccc(F)c3)ccc2OC[C@@H](C)N(Cc2cc(F)ccc2F)C[C@H]1C	i	0	-10	8.9	0.9
O=C(OCc1ccccc1)N1CCC2CC1c1cc(N3CCCCC3)ccc12 (stereo not given)	i	2	-13	39	14
C[C@H](CO)N1C[C@H](C)[C@H](CN(C)Cc2ccc(C(F)(F)F)cc2)Oc2ccc(NC(=O)Nc3cccc4ccccc34)cc2CC1=O	i	9	-10	-0.6	-0.3
CO[C@H](CN(C)S(=O)(=O)c1ccc(Cl)cc1)[C@H](C)CN(C(=O)Nc1ccccc1F)[C@@H](C)CO	i	-3	-10	-6.6	1.5
C[C@H](CO)N1C[C@H](C)[C@H](CN(C)Cc2ccccc2)Oc2ccc(NS(=O)(=O)c3cccs3)cc2CC1=O	i	-3	-6	-1.4	-1.7
CC(C=NN=C1C(=O)Nc2ccccc21)=Cc1ccccc1	i	-6	-5	2.8	7.3
Cc1ccc(S(=O)(=O)N(C)C[C@@H]2Oc3ccc(NC(=O)Cn4cnnn4)cc3C(=O)N([C@@H](C)CO)C[C@@H]2C)cc1	i	0	-5	-3.2	0.0
CCOC(=O)C1=C(C)c2ccccc2N(C(=O)OC)C1(C)C(=O)OCC (stereo not given)	i	-14	-12	1.8	-1.7
c1ccc(Cc2c(-c3ccccc3)nc3c4ccccc4ccn23)cc1	i	-5	-7	-2.0	0.2
Cc1noc(C)c1S(=O)(=O)Nc1ccc2c(c1)C(=O)N([C@@H](C)CO)C[C@H](C)[C@@H](CN(C)Cc1ccccc1)OCCCC[C@H](C)O2	i	3	1	0.3	4.4
CO[C@H]1CN(C)C(=O)c2cc(NC(=O)NC(C)C)ccc2OC[C@H](C)N(Cc2ccccc2)C[C@H]1C	i	-1	5	0.2	0.9
CCCNC(=O)C[C@H]1CC[C@@H]2[C@H](COC[C@H](O)CN2Cc2ccncc2)O1	i	-2	6	-5.3	-1.8
O=C(CN1CCOCC1)NCC[C@@H]1CC[C@H](NC(=O)Nc2ccc(Cl)cc2)[C@@H](CO)O1	i	0	-1	-1.9	0.1
CN1C(=O)c2cc(NC(=O)c3ccc(F)c(F)c3)ccc2OC[C@@H]2O[C@@H](CC(=O)N3CCCCC3)CC[C@H]21	i	-2	3	-0.1	-1.2
O=C(O)C[C@@H]1CC[C@@H](NC(=O)c2ccncc2)[C@@H](CO)O1	i	2	1	-0.5	-8.0
CCCC(=O)N1CCC2(CC1)CN(C(C)=O)[C@@H](CO)c1c2c2ccc(OC)cc2n1C	i	1	10	-0.5	0.4

Entries of single compounds, quoted from the list. Order of values: FGF22 binding	rRNA inh HTS	rRNA inh HTS OD600	rRNA inh HTS RFP	MLL AF4-AF9 inh
c1ccc(Cc2c(-c3ccccc3)nc3c4ccccc4ccn23)cc1 across the screens: i	-5	-7	-2.0	0.2
O=C(CN1CCOCC1)NCC[C@@H]1CC[C@H](NC(=O)Nc2ccc(Cl)cc2)[C@@H](CO)O1 across the screens: i	0	-1	-1.9	0.1

New compounds follow
Compound	FGF22 binding	rRNA inh HTS	rRNA inh HTS OD600	rRNA inh HTS RFP	MLL AF4-AF9 inh
Cc1noc(C)c1S(=O)(=O)Nc1ccc2c(c1)CC(=O)N([C@@H](C)CO)C[C@H](C)[C@H](CN(C)C(=O)Nc1cccc3ccccc13)O2	i	-2	-2	1.2	-2.9
COc1ccc(NC(=O)N(C)C[C@@H]2Oc3ncc(Br)cc3C(=O)N([C@H](C)CO)C[C@@H]2C)cc1	i	3	3	-4.5	-6.9
CN1c2ccc(-c3ccccc3)cc2[C@H]2[C@H](CCN2C(=O)Cc2cccnc2)[C@H]1CO	i	-8	-22	2.6	14
Fc1ccc(-c2nc3c4ccccc4ccn3c2Cc2ccccc2)cc1	i	17	12	4.4	0.4
CCCN1C[C@H](C)[C@H](OC)CN(C)C(=O)c2ccc(NC(=O)Nc3c(C)noc3C)cc2OC[C@@H]1C	i	2	-1	1.1	-1.4
O=C(C[C@@H]1C=C[C@@H](NC(=O)C2CCOCC2)[C@@H](CO)O1)NCc1ccncc1	i	3	17	-1.3	-0.2
COC(=O)[C@@H]1[C@@H](CO)[C@@H]2Cn3c(ccc(-c4ccccc4OC)c3=O)[C@@H]2N1C(=O)c1cccnc1	i	-4	-3	-2.5	-2.5
CCN(C[C@@H]1[C@@H](c2ccccc2)[C@H](CO)N1C(C)=O)C(=O)NC(C)C	i	1	5	-0.7	-3.1
O=C(COc1ccc(Br)cc1)NNC(=O)Cc1ccc(S(=O)(=O)N2CCOCC2)s1	i	-8	-11	1.7	4.1
C[C@@H]1CN([C@H](C)CO)C(=O)Cc2cc(NS(C)(=O)=O)ccc2O[C@@H]1CN(C)C(=O)Nc1cccc2ccccc12	i	4	12	2.2	-1.5

Limited to MLL AF4-AF9 inh and FGF22 binding, for some of the entries so far:
smiles | MLL AF4-AF9 inh | FGF22 binding
CCCN1C[C@H](C)[C@H](OC)CN(C)C(=O)c2ccc(NC(=O)Nc3c(C)noc3C)cc2OC[C@@H]1C | -1.4 | i
O=C(C[C@@H]1C=C[C@@H](NC(=O)C2CCOCC2)[C@@H](CO)O1)NCc1ccncc1 | -0.2 | i
COC(=O)[C@@H]1[C@@H](CO)[C@@H]2Cn3c(ccc(-c4ccccc4OC)c3=O)[C@@H]2N1C(=O)c1cccnc1 | -2.5 | i
CCN(C[C@@H]1[C@@H](c2ccccc2)[C@H](CO)N1C(C)=O)C(=O)NC(C)C | -3.1 | i

Next part
Screens in order: FGF22 binding | rRNA inh HTS | rRNA inh HTS OD600 | rRNA inh HTS RFP | MLL AF4-AF9 inh
> CCCN1Cc2cc(OC)ccc2-c2ccccc2S1(=O)=O
  i | -11 | -13 | -4.2 | 0.8
> CC(C)NC(=O)Nc1ccc2c(c1)C(=O)N([C@H](C)CO)C[C@H](C)[C@@H](CN(C)Cc1ccc(Cl)c(Cl)c1)O2
  i | 6 | 3 | -3.1 | -3.2
> COc1ccc(NC(=O)Nc2ccc3c(c2)C(=O)N([C@@H](C)CO)C[C@H](C)[C@H](CN(C)CC2CCCCC2)OCCCC[C@H](C)O3)cc1
  i | -2 | 11 | -0.6 | -0.4
> C[C@@H]1CN([C@@H](C)CO)C(=O)c2ccccc2-c2ccccc2CO[C@@H]1CN(C)Cc1ccncc1
  i | -1 | 1 | 0.5 | -3.0
> C[C@H](CO)N1C[C@H](C)[C@@H](CN(C)C(=O)c2ccc3c(c2)OCO3)Oc2ncc(/C=C/c3ccccc3)cc2C1=O
  i | -7 | -9 | 11 | 13
> Cc1ccc(OC(=O)N(C)C[C@H]2OCc3ccccc3-c3ccccc3C(=O)N([C@H](C)CO)C[C@@H]2C)cc1
  i | 0 | 3 | 0.0 | 3.0
> COc1cc(C=c2c3ccccc3n3c2cc(-c2ccccc2)[n+]3C)cc(OC)c1OC
  i | -34 | -46 | 48 | 29*
> C[C@H]1CN([C@@H](C)CO)C(=O)c2cccc(NC(=O)c3cnccn3)c2O[C@@H]1CN(C)S(=O)(=O)c1cccs1
  i | -4 | 4 | -0.3 | -1.0
> CN1C(=O)C(CC#N)(C2(CC#N)C(=O)N(C)c3ccccc32)c2ccccc21 (stereo not given)
  i | 10 | 11 | 5.0 | -2.2
> CCOc1ccc(/C=C/C(=O)N(CC)CC(=O)Nc2c(F)cccc2F)cc1OC
  i | 5 | 0 | 1.4 | 0.7
> CN1C(=O)c2cc(NC(=O)c3ccc(F)c(F)c3)ccc2OC[C@H]2O[C@@H](CC(=O)N3CCCCC3)CC[C@H]21
  i | -5 | -1 | 0.5 | -3.3
> O=C(CCNS(=O)(=O)c1ccc(Cl)cc1)N1CCN(c2ncccn2)CC1
  i | 3 | 1 | -1.0 | 0.7
> COc1cccc(C(=O)N2C[C@@H]3[C@H](c4ccccc42)[C@H](CO)N3C(=O)c2ccccc2)c1
  i | -4 | -2 | 1.5 | 0.6
> CC(C)NC(=O)N(C)C[C@H]1Oc2ccc(N(C)C)cc2C(=O)N([C@H](C)CO)C[C@@H]1C
  i | 2 | 1 | -2.8 | 0.0
> COCCNC(=O)C[C@@H]1CC[C@@H]2[C@@H](COc3ccc(NC(=O)C4CCCC4)cc3C(=O)N2C)O1
  i | -1 | -1 | -0.8 | -1.3
> COc1ccc2c3c(n(C)c2c1)[C@H](CO)NCC31CCN(CC2CC2)CC1
  i | 6 | 8 | -0.8 | -0.5
> CCC(=O)Nc1ccc2c(c1)C(=O)N(C)[C@H]1CC[C@@H](CC(=O)NCCN3CCCCC3)O[C@@H]1CO2
  i | -4 | -13 | -1.2 | 1.0
> O=C(O)C(Cc1ccc(O)c([N+](=O)[O-])c1)N1C(=O)c2ccccc2C1=O (stereo not given)
  i | 6 | 15 | 0.3 | 2.1
> CC1=C(C(=O)N(C(C)C)C(C)C)CC(CC(=O)NCc2cccc3ccccc23)C(=O)N1CCCN1CCCC1=O (stereo not given)
  i | 5 | 6 | 1.3 | -2.3
> COc1ccc(S(=O)(=O)N(C)C[C@H]2OCCCC[C@H](C)Oc3ccc(NC(=O)NC(C)C)cc3C(=O)N([C@@H](C)CO)C[C@@H]2C)cc1
  i | -6 | 1 | 0.2 | 0.4
> O=C(C[C@@H]1C[C@H]2c3cc(NC(=O)C4CCC4)ccc3O[C@H]2[C@@H](CO)O1)NCC(F)(F)F
  i | 1 | 2 | -3.7 | 0.1
> COc1cccc(CN2CCC(C)(Oc3cccc(Cl)c3)C2)c1OC (stereo not given)
  i | 4 | -16 | 2.8 | 2.1
> CN(C)CCCNC(=O)C[C@H]1CC[C@H]2[C@@H](COC[C@H](O)CN2S(=O)(=O)c2ccc(F)cc2)O1
  i | 6 | 1 | -1.2 | -0.4
> COCCn1c(=S)[nH]c2cc(C(=O)NC3CCCCC3C)ccc2c1=O (stereo not given)
  i | 3 | -1 | -4.4 | 1.8
> Cc1noc(C)c1NC(=O)Nc1cccc2c1O[C@@H](CN(C)S(=O)(=O)c1ccc(Cl)cc1)[C@@H](C)CN([C@@H](C)CO)C2=O
  i | 1 | 10 | -1.6 | -0.8
> C[C@@H]1CN([C@H](C)CO)C(=O)c2cc(Br)cnc2O[C@@H]1CN(C)CC1CCCC1
  i | 6 | 11 | -1.4 | -6.8
> O=C(NS(=O)(=O)c1ccc2ccc(S(=O)(=O)NCCSc3ccccc3)cc2c1)c1cccc2ccccc12
  i | -56 | -80 | -20 | -5.3
> COc1ccc(S(=O)(=O)N(C)C[C@H]2Oc3c(NC(=O)Nc4ccc5c(c4)OCO5)cccc3C(=O)N([C@@H](C)CO)C[C@@H]2C)cc1
  i | 1 | 4 | 0.7 | 3.2
> C[C@@H](NC(=O)C[C@@H]1CC[C@H](NC(=O)c2cccnc2)[C@H](CO)O1)c1ccccc1
  i | 2 | 2 | -0.2 | -1.8
